Sfp inh: qHTS Assay for Inhibitors of Bacillus subtilis Sfp phosphopantetheinyl transferase (PPTase); 4'-phosphopantetheinyl transferase ffp (Bacillus subtilis), Q9F4F7; Biochemical Sfp PPTase activity, qHTS; Potency, µM, inactives show max response, negative = inhibition, most hits filed as inhibitors; hit rate 3.5% among 310,000; AID 1490, 2009; active = well fitted inhibition curve with a large enough effect; inconclusive = small, poorly fitted or top-dose-only effect, or another doubt; inactive = no such curve, though single readings can be large or run the other way;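 note: the enzyme is Sfp with the accession as filed and its product quenches rhodamine fluorescence; potency is the fitted concentration of half-maximal effect; 0% = enzyme reaction without inhibitor and -100% = no enzyme wells; top concentration of the series not given in the record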
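Reaction rates are the 30-min fluorescence difference (ex 525, em 598 nm) in wells containing 15 nM Sfp, 5 uM rhodamine-CoA and 12.5 uM BHQ-2-YbbR at pH 7.6 with 10 mM MgCl2.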
gsp ag: qHTS for Agonist of gsp, the Etiologic Mutation Responsible for Fibrous Dysplasia/McCune-Albright Syndrome: qHTS; gsp mutant cells, cAMP HTRF, 30 min; control for the full effect not named in the record; Potency, µM (series often up to 76.9 µM), for inactives: top-dose activation (cAMP increase), actives largely listed as activators; hit rate 0.13% among 340,000; AID 624287, 2012; active = well fitted activation curve with a large enough effect; inconclusive = small, poorly fitted or top-dose-only effect, or another doubt; inactive = no such curve, though single readings can be large or run the other way; cell line not stated here;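 note: phosphodiesterase inhibitor Ro 20-1724 added with compounds to block cAMP breakdown; potency is the fitted concentration of half-maximal effect; nearly all actives have a fitted effect of over 60% in size; about a fifth of the inactives were tested at one dose only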
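Cells in DMEM/10% FBS with G418 were pretreated with compounds in DMSO plus […] (300 uM stock) for 30 min at 37C. cAMP was measured by HTRF (cAMP-d2 plus anti-cAMP antibody-K) after 30 min at room temperature.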
ClpP mod: qHTS Assay for Activators of ClpP. purified B. subtilis ClpP, FRET peptide cleavage, 20 min. ATP-dependent Clp protease proteolytic subunit (Bacillus subtilis (strain 168)), P80244. Potency, µM (doses to about 57.5 µM), inactives show top-dose activity change, negative = active. hit rate 1.9% among 340,000; active = well fitted falling curve with a large enough effect; inconclusive = small, poorly fitted or top-dose-only effect; inactive = no such curve, though single readings can be large or run the other way; note: potency is the fitted concentration of half-maximal effect; the source files actives as falling curves though it sought activators and does not explain the sign; nearly all actives have a fitted effect of over 65% in size; many hits overshoot -100%
Target sequence (P80244 whole entry, looked up): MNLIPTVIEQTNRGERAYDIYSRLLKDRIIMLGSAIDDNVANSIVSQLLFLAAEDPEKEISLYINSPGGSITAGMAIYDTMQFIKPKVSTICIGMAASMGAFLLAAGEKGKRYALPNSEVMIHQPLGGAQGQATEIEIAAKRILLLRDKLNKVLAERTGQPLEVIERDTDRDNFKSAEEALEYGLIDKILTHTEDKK
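Buffer: 100 mM Tris/HCl pH8, 100 mM KCl, 0.05% low protease BSA, 2.5% glycerol, 0.01% Tween-20. ClpP 10 microg/mL final; 20 min RT; delta FRET normalized to ADEP and DMSO controls.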
gsp antag: qHTS for Antagonists of gsp, the Etiologic Mutation Responsible for Fibrous Dysplasia/McCune-Albright Syndrome: qHTS; gsp-mutant cells, cAMP HTRF, 30 min; control for the full effect not named in the record; Potency, µM (series often up to 76.9 µM), without a hit: top-dose activity change, negative = inhibition, actives largely listed as inhibitors; hit rate 0.4% among 340,000; active = falling curve of any shape with a large fitted effect; inconclusive = falling curve, mostly with a smaller effect; inactive = flat or rising curve; cell line not stated here;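 note: intracellular cAMP measured with PDE inhibitor Ro 20-1724 present during compound exposure; potency is the fitted concentration of half-maximal effect; % is set by controls: 0 for no effect and ±100 for the full control effect; nearly all actives have a fitted effect of over 65% in size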
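Cells in G418 medium, seeded 16-24 h, 37C; buffer exchange to DPBS + 1 mM CaCl2, 0.5 mM MgCl2, 0.05% BSA; cpds in DMSO + […] (300 uM stock), 30 min 37C; HTRF cAMP detection.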
Menin MLL FP FL: qHTS Assay for Inhibitors Targeting the Menin-MLL Interaction in MLL Related Leukemias: Competition With Fluorescein Labeled MLL-derived Peptide. Fluorescence polarization, fluorescein-MLL peptide displacement from menin. FP activity change, % at 61.4 µM. 290,000 tested, under 10 active. AID 1766, 2009; inconclusive = falling polarisation curve, or a change in total fluorescence; inactive = total fluorescence flat and polarisation flat or rising; no compound was filed as active; the % refers to the polarisation; negative = inhibition;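 note: % of control where 0% means no effect; inhibitors lower the polarisation; unlabelled MLL peptide was the positive control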
TRPV1 potentiator: HTS Assay for Compounds that Act as Potentiators of the Vanilloid Receptor 1; TRPV1-expressing cells, Fluo-8 calcium influx, capsaicin EC20 potentiation; host cell line not named in the record; control for the full effect not named in the record; potentiation, % at 8.33 µM; hit rate 0.02% among 320,000; AID 540277, 2011; active means potentiation above 80%; inconclusive means 30% to 80%; inactive means below 30%; note: 0% is about no effect
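Cells expressing TRPV1 were dye-loaded with Fluo-8 and read kinetically: 10 s baseline, 3 min after compound (agonist portion), then 2 min after EC20 capsaicin (allosteric enhancer portion). Calcium-bound dye fluorescence at 480/520 nm.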
TRPML1 inh: qHTS for Inhibitors of the Human Mucolipin Transient Receptor Potential 1 (TRPML1); Mucolipin-1 (Homo sapiens), Q9GZU1; TRPML1-inducible cells, Ca2+ dye fluorescence, FDSS; stronger effect = lower value; inhibition of EC80 agonist-evoked calcium signal; activity change, negative = inhibition, % (no concentration beside the values); hit rate 0.02% among 390,000; in the data active means activity change below about -50%; inconclusive means about -30% to -50%; inactive means above about -30%;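 note: stimulus is agonist 54-4 at its EC80 concentration; % is set by controls: 0 for no effect and ±100 for the full control effect; compound concentration not given in the record; the text of the record puts the active cut at -80%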
Target sequence (Q9GZU1 whole entry, looked up): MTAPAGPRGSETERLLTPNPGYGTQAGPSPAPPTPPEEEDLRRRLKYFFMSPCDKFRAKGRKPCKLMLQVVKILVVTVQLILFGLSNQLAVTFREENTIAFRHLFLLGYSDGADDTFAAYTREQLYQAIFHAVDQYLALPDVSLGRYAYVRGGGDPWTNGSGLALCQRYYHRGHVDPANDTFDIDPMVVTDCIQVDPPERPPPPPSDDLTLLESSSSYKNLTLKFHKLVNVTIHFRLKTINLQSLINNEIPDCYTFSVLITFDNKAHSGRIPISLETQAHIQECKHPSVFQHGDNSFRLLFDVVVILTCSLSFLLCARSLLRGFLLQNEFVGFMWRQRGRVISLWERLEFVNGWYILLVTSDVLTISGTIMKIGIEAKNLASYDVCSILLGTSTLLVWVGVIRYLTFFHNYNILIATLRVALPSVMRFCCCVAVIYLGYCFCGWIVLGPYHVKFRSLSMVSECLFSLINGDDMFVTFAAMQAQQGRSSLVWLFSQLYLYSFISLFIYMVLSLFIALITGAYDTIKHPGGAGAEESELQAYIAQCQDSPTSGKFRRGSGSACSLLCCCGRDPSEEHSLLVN
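TRPML1-DL cells, Tet-induced overnight (~16 h, 37 °C) at 1,500 cells/well, were loaded with Ca8 no-wash dye plus quencher for 45-90 min at room temperature. Compounds were pinned during FDSS kinetic reading; agonist 54-4 at EC80 (4 uM final) then added.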
The depositor's hits bear a star; u = inconclusive; x = no result given; & = joins results of further samples; [ ] = dose if it differs, or a comment. Not a hit list; about 4.9% have a hit in one of these screens.

SMILES	Sfp inh	gsp ag	ClpP mod	gsp antag	Menin MLL FP FL	TRPV1 potentiator	TRPML1 inh
Cc1ccc(CN2CCSc3ccc(C(=O)N4CCN(c5ncccn5)CC4)cc32)cc1	50µM*	2%	-13%	u	1.4	-6	-6
O=S(=O)(c1cccs1)N1CN(C2CCCC2)c2nc3ccccc3nc21	0%	-35%[15.4 µM]	x	-6%	1.1	8	5
COC(=O)C1Cc2c([nH]c3ccccc23)C(C)N1 (centres undefined)	9%	0%	u	3%	2.6	-4	-5
Cc1cc(Br)c(OCc2ccc(C(=O)N/N=C/c3ccc[nH]3)cc2)c(Br)c1	x	8%	6.2%	7%	x	13	2
COc1ccc(C2C3=C(NCCN=C3c3ccccc3)C(=O)N2c2ccccc2)c(OC)c1 (centres undefined)	-17%	23%	x	8%	-2.5	u	3
NNC(=O)c1cc(C2CC2)nc2ccc(Br)cc12	6%	0%	x	-2%	1.3	-1	-5
NS(=O)(=O)c1ccc(-c2ccc(/C=N/NC(=O)c3ccc([N+](=O)[O-])cc3)o2)cc1	12%	5%	-1.7%	5%	1.6	10	0
COc1ccc(CCN2C(=O)CC(C(N)=O)SC2=Nc2ccc(F)cc2)cc1OC (centres undefined)	21%	-9%	x	-14%	-4.8	9	-16
C=CCN1CN(S(=O)(=O)c2cccs2)c2nc3ccccc3nc21	0%	16%	25µM*	9%	2.6	-6	-5
COC(=O)c1ccc(C)c(NC(=O)CSc2nc3[nH]c(=O)cc(O)c3s2)c1	x	-19%	-0.8%	1%	x	18	-14
COc1cccc(-c2nnc(SCc3nc4ccccc4s3)n2C)c1	9%	5%	-6.9%	3%	3.8	12	-3
Cc1cnn(-c2cc(N/N=C/c3ccccc3)ncn2)c1	-7%	39%	-0.3%	0%	4.1	-4	26
CCN(CC)C(=O)CSc1nnc(-c2cnccn2)n1-c1ccc(C)cc1	13%	-35%[inhibitor]	-4.4%	0%	2.7	-4	-12
Cc1cc(C)c(OCCN2CC(C)OC(C)C2)c(Br)c1 (centres undefined)	u	-1%	x	9%	4.0	2	26
CN1CCN(c2oc(/C=C/c3ccccc3)nc2C#N)CC1	7%	8%[15.4 µM]	0.7%	-4%	0.7	-12	-1
CCc1nc2ccc(C(=O)N3CCN(c4cccc(Cl)c4)CC3)cc2nc1CC	-10%	0%	-0.1%&-12%	-21%	-3.0	9	-26&9
O=C(O)CCc1ccc(-c2cccs2)n1-c1ccc(C(=O)O)cc1	28µM*	u	-2.6%	-2%	21	x	5
CN(CC(=O)Nc1cccc2ccccc12)c1ccc(S(=O)(=O)N2CCOCC2)cn1	21%	-23%	-1.4%	-16%	-1.1	-9	-11
O=C(NCc1csc(-c2cccs2)n1)c1ccsc1	5%	u	x	1%	1.2	-19	-11
OC(COc1ccccc1)CN1CCN(C(c2ccccc2)c2ccccc2)CC1 (centres undefined)	8%	19%	-0.9%	-6%	-0.2	15	-14
COC(=O)c1ccccc1NC(=O)CSc1nc(Nc2ccccc2)nc(N2CCOCC2)n1	6%	u	-18%	-10%	x	0	-1
CC(NC(=O)c1ccc(NC(=O)CC2SC(N3CCCC3)=NC2=O)cc1)c1ccc(F)cc1 (centres undefined)	x	-23%	1.1%	-7%	x	4	-20
O=C1c2ccccc2CN1C(CO)Cc1ccccc1 (centres undefined)	4%	10%	-0.7%	9%	0.0	16	x
O=C(CN(Cc1ccco1)C(=O)CCC(=O)Nc1ccccn1)NCc1ccccc1	10%	1%[15.4 µM]	x	-7%	-2.0	8	7
O=C(NCCOc1ccccc1F)c1cccc(S(=O)(=O)N2CCN(c3ccccc3)CC2)c1	x	5%	-4.1%	-2%	x	24	3
Cc1noc(/C=C/N(C)C)c1S(=O)(=O)N1CCCC(C(=O)Nc2ccccc2F)C1 (centres undefined)	-6%	10%	-2.6%	-1%	-2.5	u	-9
COc1cc2c(cc1OC)C(c1ccc(C)cc1)NC(=O)C2 (centres undefined)	7%	-2%	-2.1%	0%	-0.3	23	-15
CCOC(=O)CC(=O)CSc1nc(-c2cccnc2)cc(C)c1C#N	16%	3%	9.0%	-2%	3.9	9	-12
Cc1cc(C)c(S(=O)(=O)NCC23C=CC(O2)C2C(=O)N(c4ccccc4)C(=O)C23)c(C)c1 (centres undefined)	28µM*	12%	0.0%	2%	2.6	1	3
O=C(c1ccc(S(=O)(=O)Cc2ccccc2Cl)c([N+](=O)[O-])c1)N1CCOCC1	16%	-58%[inhibitor]	1.0%	-27%	-0.7	-16	-10
O=C(NNC(=O)c1ccccc1[N+](=O)[O-])c1ccccc1[N+](=O)[O-]	-61%	8%[15.4 µM]	-2.0%	9%	0.3	3	36
COc1ccc(C2CC(c3ccccc3C)n3nc(N)nc3N2)cc1 (centres undefined)	19%	-50%[inhibitor]	-3.5%	4%	3.0	u	4
COc1ccccc1C(=O)C1CCCN(Cc2cccc(OCCO)c2)C1 (centres undefined)	23%	-14%	-7.7%	1%	0.3	u	9
OC(COc1ccc(CN2CCCCO2)cc1)CN1CCCCC1 (centres undefined)	-2%	-5%[15.4 µM]	x	7%	-1.6	-4	-5
COc1cccc(-c2csc(N3CCN(C(=S)Nc4ccccc4OC)CC3)n2)c1	8%	-96%[inhibitor]	0.1%	-3%	10	10	2
CCN(CC)S(=O)(=O)c1ccc(-c2cn3ccc(C)cc3n2)cc1	18%	-4%	4.0%	1%	0.6	-11	x
COc1cc2c(cc1OC)C(c1ccccc1C(F)(F)F)CC(=O)N2 (centres undefined)	10%	u	x	-2%	1.1	-29	4
COc1ccc(Cl)cc1S(=O)(=O)NCc1cccs1	10%	-46%[inhibitor]	1.2%	1%[15.4 µM]	2.9	0	10
COCCNC(=O)NC1(C(F)(F)F)Oc2ccc(Cl)cc2O1 (centres undefined)	1%	-13%	0.4%	-2%	-0.6	10	-19
CCOC(=O)c1ccccc1Oc1c(F)c(F)nc(NCCO)c1F	-1%	-6%	-0.7%	-3%	6.1	20	16

The list goes on, starting with the last 2 of the part before.
SMILES	Sfp inh	gsp ag	ClpP mod	gsp antag	Menin MLL FP FL	TRPV1 potentiator	TRPML1 inh
COCCNC(=O)NC1(C(F)(F)F)Oc2ccc(Cl)cc2O1 (centres undefined)	1%	-13%	0.4%	-2%	-0.6	10	-19
CCOC(=O)c1ccccc1Oc1c(F)c(F)nc(NCCO)c1F	-1%	-6%	-0.7%	-3%	6.1	20	16
O=C(NC1CCSc2ccccc21)c1cccc([N+](=O)[O-])c1 (centres undefined)	16%	u	-1.5%	-7%	0.3	-7	1
NC(=O)Cn1nc([N+](=O)[O-])nc1Oc1ccccc1C(=O)N1CCOCC1	0%	0%[15.4 µM]	x	19%	0.9	-1	-15
COC(C[C@H](O)C[C@@H](O)[C@H](C)OCc1ccccc1)OC	13%	30%	-1.4%	8%	-3.2	20	19
Cc1ccc(C(=O)N[C@H](C(=O)NC2CCCCCCC2)C(C)C)cc1	x	-114%[inhibitor]	1.6%	0%	x	-10	-6
CC1(NC(=O)N2CCOCC2)CCS(=O)(=O)C1 (centres undefined)	3%	-5%	1.0%	4%	2.3	2	-18
Cc1ccccc1N1C(=O)CSC1=C(C#N)C#N	-10%	-3%[15.4 µM]	x	6%	u	-2	-2
CCN(CC)S(=O)(=O)c1cccc(C(=O)NCC2CCCO2)c1 (centres undefined)	4%	5%	-0.6%	7%	5.1	-2	-8
N#CC(Sc1ccccn1)c1ccc(Cl)cc1Cl (centres undefined)	u	-5%[15.4 µM]	x	-5%	0.7	-5	4
CCn1c(CSc2nnc(-c3ccncc3)n2C)nc2cc(C(=O)O)ccc21	-2%	-6%[15.4 µM]	x	9%	-16	-2	2
C=CCn1c(C23CC4CC(CC(C4)C2)C3)n[nH]c1=S	15%	9%[15.4 µM]	1.0%	1%	-1.6	2	20
COc1ccccc1/C=C/C(=O)Nc1ccc2c(c1)OCCO2	-14%	-73%[inhibitor]	0.2%	16%	1.1	-3	28
CCOc1ccc(C(=O)Nc2c3c(nn2-c2cccc(Cl)c2)CS(=O)C3)cc1 (centres undefined)	0%	-9%	0.6%	3%	2.1	-5	6
COc1ccc(S(=O)(=O)Nc2cccc(-n3cnnn3)c2)cc1OC	-1%	u	0.2%	5%	0.6	-2	4
O=C(c1ccccc1F)N1CCN(S(=O)(=O)c2ccc(S(=O)(=O)N3CCCCC3)cc2)CC1	6%	3%	-6.6%	5%	1.3	9	-4
CCOC(=O)c1c(P(=O)(N2CCOCC2)N2CCOCC2)noc1N	-2%	-3%	0.2%	-2%	0.1	0	-3
COc1ccc(S(=O)(=O)NC2CCCCC2)cc1C(=O)N1CCCCC1	14%	0%	-4.3%	-1%	x	-1	2
CCOC(=O)c1sc(NC(=O)c2cccnc2)c(C#N)c1C	0%	4%	-2.1%	-7%	-0.5	9	29
Cc1cc(C)cc(NC(=O)COC(=O)CCC2CCCC2)c1	x	15%	-3.1%	12%	x	-3	8
COc1ccc2cc(C(=O)C3CCCN(Cc4cnc(C)s4)C3)ccc2c1 (centres undefined)	-14%	-3%[15.4 µM]	x	-25%	-1.4	-14	-1
Cc1ccc(-c2noc(C3CCCN(S(=O)(=O)c4ccc5ccccc5c4)C3)n2)o1 (centres undefined)	-18%	-6%	-1.9%	-4%	6.7	3	8
O=c1[nH]c(=O)n(Cc2ccco2)c2c1C(C(F)(F)F)(C(F)(F)F)N=C(c1ccco1)N2	-6%	-32%[inhibitor]	-6.5%	u	4.9	19	0

From PubChem
